Screening results: PubChem BioAssay, Fisher Drug Discovery Resource Center
NPYLR7 ag: mosquito NPYLR7 agonism; HEK293T NPYLR7/Galpha15, GCaMP6s calcium fluorescence; activation, % at 10 µM; 0.15% of 270,000 active; AID 1259423; in the data active means activation above about 40%;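 further: 0% = vehicle and 100% = reference agonist at the receptor; some compounds past the cut are filed as inactive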
NPYLR7 ag max-min: second read-out of NPYLR7 ag, no call of its own (marks repeat the call); activation, %; measured here: Max-Min RFU normalised activation; some inactives read as strong as hits;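 span of the calcium signal over five minutes; 0% = vehicle and 100% = native peptide agonist; compound fluorescence can raise it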
* hit, by the source's call; & = joins results of further samples. A portion of the library (hit frequency here may not be typical).

Results follow in this order: NPYLR7 ag	NPYLR7 ag max-min
> c1ccc(NN=C2CCCc3ccccc32)nc1
  0	-3
> O=C(CNC(=O)c1ccco1)OCC(=O)c1ccc(OC(=O)c2ccccc2)cc1
  -1	-3
> CCCCNC(=O)c1c(C(F)(F)F)nn(C2CCCN(C(C)C)C2)c1C (stereo unspecified)
  15	6
> CCS(=O)(=O)Nc1ccc2nc(-c3cccc(Cl)c3)nn2c1
  0	-5
> COc1ccc(OC)c(C2c3cccn3-c3ccccc3N2C(=O)CN(C(=O)Nc2ccccc2Br)C2CC2)c1 (stereo unspecified)
  20	24
> CCN(CCn1cccn1)Cc1nc(Cc2cccc(C(F)(F)F)c2)no1
  6	1
> C=C(C)COc1ccccc1C(=O)NCc1cc(-c2cccnc2)no1
  8	-1
> Cc1cccc(C(C)C)c1NC(=O)CSc1ccccc1Cl
  7	5
> COc1ccc(N(C)S(=O)(=O)c2ccc(OC)c(N3CCN(C(=O)c4c(F)cccc4Cl)CC3)c2)cc1
  13	10
> CCn1c(C)c(C)n2c3c(=O)n(Cc4ccc(F)cc4)c(=O)n(C)c3nc12
  0	4
> Cc1[nH]n2c(=O)c3c(nc2c1-c1cccc2ccccc12)CCC3
  -4	-5
> COc1ccc(S(=O)(=O)NCCc2nnc3ccc(SCc4ccccc4)nn23)cc1
  -1	-9
> CCNc1ccc(C#N)cc1NCC(=O)NCc1ccccc1F
  0	2
> CSc1ccc(NC(=O)C2(C)CCN2C(=O)Cc2ccc(C(C)(C)C)cc2)cc1 (stereo unspecified)
  -5	-10
> CCC(C)NC(=O)C1CCN(c2nccc(OC)n2)CC1 (stereo unspecified)
  1	2
> CCn1cc(C(CC(=O)N2CCC3(CC2)OCCO3)c2cccc(F)c2)c2ccccc21 (stereo unspecified)
  3	-7
> Cc1ccc(OCc2cc(C(=O)N(C)Cc3cc(C4CC4)n[nH]3)no2)cc1C
  1	6
> Cc1ccc(S(=O)(=O)N2CCC(Nc3ncc(C(N)=O)cc3Cl)CC2)cc1
  -8	-8
> COc1ccc(N2CCN(C(=O)CCl)CC2)cc1
  0	-2
> CCCNC(=O)C1(C)CCN(Cc2ccc(OCc3ccccc3)cc2)C1 (stereo unspecified)
  6	7
> CCOc1cc2nc(SC)n(C(=O)c3ccccc3F)c2cc1OCC
  -1	-1
> CCCn1nnnc1CSC(C)C(=O)NCc1ccccc1Cl (stereo unspecified)
  7	3
> O=c1cc(-c2c(F)c(F)c(F)c(F)c2F)oc2c(F)c(F)c(F)c(F)c12
  -1	-2
> COc1cccc(NC(=O)c2ccc(-n3nc(-c4cccc(C)c4)cc3N)cc2)c1
  -8	-11
> Cc1ccnc(NS(=O)(=O)c2ccc(Cl)c(C(F)(F)F)c2)c1
  -5	0
> C[C@@H](NC(=O)c1ccc(SCc2ccccc2)nc1)C(C)(C)C
  8	3
> CCN1CCCC(N2C(=O)OC(C)(C)C2(C)O)C1 (stereo unspecified)
  0	-3
> CCC1SC(=NC(=O)c2c(C)oc(C)c2Br)NC1=O (stereo unspecified)
  1&-7	-3&-8
> Cc1nc2ccc(-c3nn4c(C5CC5)nnc4s3)cc2[nH]1
  2	-5
> O=C(Cn1cc(C(F)(F)F)cc(Cl)c1=O)c1ccc[nH]1
  0	4
> CN(C)c1ncc2c(n1)CCCC2NCc1ccccc1-c1ccco1 (stereo unspecified)
  17	7
> CCN1CCCC(NCCc2nc(C)c(C)s2)C1 (stereo unspecified)
  17	9
> CC(C)Cc1nc(CN(C)Cc2ccnc3ccccc23)no1
  13	1
> CCCn1c(C)cc(C(=O)CN2C(=O)NC3(CCCc4sccc43)C2=O)c1C (stereo unspecified)
  2	3
> COc1ccc(CN2CCNC(=O)C2CC(=O)NCCSC)cc1OC (stereo unspecified)
  10	10
> CC1(C(=O)NS(=O)(=O)c2cccc(C#N)c2)CCN1C(=O)Cc1ccc(-c2ccccc2)cc1 (stereo unspecified)
  1	0
> Cc1nc2nc(S(=O)(=O)N3CCCCC3)nn2c(C)c1C
  4	0
> CCN(Cc1ccncc1)C(=O)CCC(=O)NC1CCCC1
  -14	-12
> COCCN(C)C(=O)Nc1ccc2c(ccn2CC(=O)N(C)C)c1
  3	1
> CCNc1ccnc(-c2ccc(F)c(CO)c2)n1
  8	4

Entries of single compounds as entered above.
Cc1nc2ccc(-c3nn4c(C5CC5)nnc4s3)cc2[nH]1 is listed as NPYLR7 ag: 2; NPYLR7 ag max-min: -5
CCS(=O)(=O)Nc1ccc2nc(-c3cccc(Cl)c3)nn2c1 is listed as NPYLR7 ag: 0; NPYLR7 ag max-min: -5
CC1(C(=O)NS(=O)(=O)c2cccc(C#N)c2)CCN1C(=O)Cc1ccc(-c2ccccc2)cc1 (stereo unspecified) is listed as NPYLR7 ag: 1; NPYLR7 ag max-min: 0

Further results follow.
Results follow in this order: NPYLR7 ag	NPYLR7 ag max-min
> Cc1c(S(=O)(=O)N(Cc2ccccc2)Cc2ccccc2)c(=O)n(C)c(=O)n1C
  -2	-1
> Cc1sc(Nc2ccccc2)nc1-c1ccccc1
  2	0
> CC(C)N1CCC(NCc2ccc(-n3ccnc3)cc2)CC1
  -5	-7
> CCOC(=O)N1CCN(c2ccc(C(=O)O)cc2[N+](=O)[O-])CC1
  -24	-27
> COc1cc(OC)cc(C(=O)NCCn2ncc3c(=O)n(Cc4ccccc4)cnc32)c1
  -6	-11
> Cc1ccccc1-n1c(SCc2ccccc2F)nnc1C1CCCCC1
  1	-3
> CCNC(=O)N(CCOC)Cc1ccccc1OS(=O)(=O)c1ccc(NC(C)=O)cc1
  0	4
> COCc1nn2c(nnc3c(=O)n(C4CCCC4)ccc32)c1-c1ccc(F)cc1
  -1	5
> O=C(CCN1CCCCO1)N(Cc1ccccc1)Cc1nccs1
  -4	-2
> CN(CC(=O)Nc1cc(F)ccc1F)Cc1ccccc1
  -1	-1
> CNc1nc(CN2CCCC(N3CCCC3=O)C2)cs1 (stereo unspecified)
  0	-2
> Cc1cc(=O)n2nc(CSc3nnnn3C3CC3)sc2n1
  1	4
> Cc1cc(=O)[nH]c(-n2nc(-c3cccs3)cc2NC(=O)C2CC(=O)N(c3ccccc3)C2)n1 (stereo unspecified)
  -1	-2
> O=S(=O)(Nc1cccc(-c2nc3ccccc3s2)c1)c1ccc(F)c(F)c1
  -2	-6
> Cc1ccc(S(=O)(=O)CCNC(=O)CN2CCCN(C)CC2)cc1
  1	-2
> S=C(NCC1CCCO1)Nc1ccc(N2CCCCC2)cc1 (stereo unspecified)
  6	9
> COC(=O)Cn1c2[n+](c3ccccc31)CC(O)CS2 (stereo unspecified)
  3	0
> CN(C)CC1(O)CCCN(C(=O)Cc2c(F)cccc2Cl)CC1 (stereo unspecified)
  10	10
> O=C(/C=C/c1ccc(OC(F)(F)F)cc1)N1CC(=O)N2CCc3ccccc3C2C1 (stereo unspecified)
  40	28
> COc1cc(OC)cc(C(=O)N(CC(=O)N2CCc3sccc3C2c2ccccc2C)C2CCCCC2)c1 (stereo unspecified)
  19	25

Other entries.
Molecule	NPYLR7 ag	NPYLR7 ag max-min
Cc1ccc(NC(=O)Cn2nnc(C(=O)NCc3cccs3)c2N)c(C)c1	-7	-10
CCCNC(=O)C1(C)CCCN(Cc2ccc(Oc3ccccc3)cc2)C1 (stereo unspecified)	-1	0
Cc1ccc(Sc2ccc(-c3nccn3CCO)o2)cc1	12	2
CSc1nnc(COc2ccc(C)nc2)s1	-7	-7
O=C(Nc1ccc2c(c1)OCCCO2)C1(c2cccc(F)c2)CCOCC1	7	3
N#CC(C#N)=C(C#N)N1CCCCC1	4	3
CCCCCC(=O)N1C[C@H](C(=O)NC)[C@H]2c3ccccc3N(CC3CC3)C(=O)[C@]21C	6	15
Cc1ccc(-c2ccc(/C=C3\C(=O)NC(=S)N(c4ccccc4)C3=O)o2)c(Br)c1	-2	-2
C#CC(C)(C)NC(=O)C1CCCN(CC(N)=O)C1 (stereo unspecified)	8	6
CCOC(=O)c1cccnc1Oc1cccc(NC(=O)CC2Cc3ccccc3C2)c1	5	-4
COc1ccccc1-n1ncc2c(C)nnc(SCC(=O)Nc3cc(C)on3)c21	-7	-13
CN(C)CCCN(C(=O)c1cc(Cl)sc1Cl)c1nc2cc3c(cc2s1)OCO3	0	-2
CC(NC(=O)CN1CN(c2ccccc2)C2(CCN(C(=O)Nc3cccc(Br)c3)CC2)C1=O)c1ccccc1 (stereo unspecified)	10	11
CCOc1ccc(C2C(C(=O)OC3CCCC3)=C(C)NC3=C2C(=O)CCC3)cc1OC (stereo unspecified)	4	2
CCCC(=O)Nc1cc(C)nn1-c1ncnc2c1cnn2-c1ccc(C)cc1C	7	5
Cc1ccc(C)c(S(=O)(=O)N2CCN(C(C(=O)NC3CC3)c3ccccc3)CC2)c1 (stereo unspecified)	-1	-5
CCCN(Cc1cc(NC(=O)c2cccc(F)c2)ccc1N(C)C)S(=O)(=O)c1cccc(Cl)c1	6	10
CCC[C@H](NC(=O)/C(C#N)=C/c1cccc(Br)n1)c1ccccc1	1	-1
O=c1c2c(ncn1Cc1ccc(Cl)cc1)NCCC2	-1	0
O=C(Nc1ccc(-c2nc3cc(NC(=O)c4ccc([N+](=O)[O-])cc4)ccc3o2)cc1)c1ccc([N+](=O)[O-])cc1	5	-1
COc1ccc(CCNC(=O)c2cnc3c(-c4cccs4)cnn3c2C)cc1	10	3
CCOC(=O)c1sc(N2C(=O)C(O)=C(C(=O)c3ccco3)C2c2ccc(OC)cc2)nc1C (stereo unspecified)	-1	-2
CC1=CC(=O)c2ccccc2C1=O	-12&-3	-19&-4
COc1ccc(C2Nc3ccccc3C(=O)N2c2ccccc2)cc1CSc1ccccn1 (stereo unspecified)	-1	-7
CSc1ccc(C2C3=C(CC(C)(C)CC3=O)OC(=N)C2C#N)cc1 (stereo unspecified)	6	3
O=C(CCn1[nH]c(=O)c2ccccc2c1=O)N1CCn2cccc2C1c1ccccc1 (stereo unspecified)	-5	-3
COCCOC(=O)C1=C(C)NC2=C(C(=O)CC(c3ccc(OC)cc3)C2)C1c1ccc(Br)cc1 (stereo unspecified)	1	0
Cc1ccc(NC(=O)CSc2ncc(S(=O)(=O)c3ccc(C(C)C)cc3)c(=O)[nH]2)cc1	-6	-14
O=C(COC(=O)[C@@H]1CCCN1S(=O)(=O)c1ccc(Cl)cc1)NC1CC1	-2	-3
O=C(N1CCc2c(nc[nH]c2=O)C1)C1(c2ccccc2)CC1	3	2
CSCC(=O)N1C[C@H]2OC(=O)N(CCc3cccc(Cl)c3)[C@H]2C1	13	-2
O=C1CC(NCc2ccco2)C(=O)N1c1ccc(F)cc1 (stereo unspecified)	-14	-20
CCCN(CC(=O)Nc1cc(-c2ccccc2)nn1-c1ccccc1)C(=O)Nc1c(C)cccc1C	13	23
CCOC(C)c1ccc(-c2cnc(C)[nH]2)cc1 (stereo unspecified)	12	-5
COc1cc(NCC(O)CN2CCCCCC2)ncn1 (stereo unspecified)	3	0
Cc1ccc(OCC(=O)Nc2nnc(C(C)C)s2)cc1	6	7
O=C(Nc1ccc2c(c1)CCC2)c1cc2n(n1)CCN(Cc1c(F)cccc1Cl)C2=O	18	7
CC(=O)Nc1ccc(OCc2cc(C)ccc2C)cc1	-5	-7
O=C(NC1CC1)c1ccc(N2CCc3ccccc3C2)nc1	10	7
CCN1CCC(NC(=O)c2ccc(-c3ccccc3)cc2)CC1	7	1
O=C(O)c1ccccc1N=Nc1c(O)[nH]c2c(I)cccc12	-3	-5
CCOC(=O)C1(Cc2ccccc2C)CCCN(C(=O)c2cc(C(C)C)no2)C1 (stereo unspecified)	-1&-9	-3&-12
N#Cc1c2n(c(=O)n(CC(=O)N3CCOCC3)c1=O)CCC2	11	8
O=C(Nc1ccc(N2CCN(S(=O)(=O)c3ccc(C(F)(F)F)cc3)CC2)nc1)c1ccccc1F	26	16
O=S(=O)(Nc1cccnc1-n1cccn1)c1cc(F)cc(F)c1	1	-3
Cc1nn(CCO)cc1CN1CC(N2CCCCC2C)C1 (stereo unspecified)	9	5
O=C(CC(NCCCN1CCOCC1)C(=O)O)Nc1ccc(N=Nc2ccccc2)cc1 (stereo unspecified)	-3	-3
CN(C)c1ccc(C(=O)C=Cc2ccc(O)cc2)cc1	24	12
CN(Cc1ccccc1N1CCCC1)C1=NS(=O)(=O)c2ccccc21	-1	-2
CC1(C)CNC(=O)c2nc(CCn3nccc3C3CC3)[nH]c2C1	-1	-3
Cc1nn(-c2ccccc2)c2nc(CC(C)C)nc(N3CCN(C(=O)c4cc(Cl)cc(Cl)c4)CC3)c12	10	11
CCCCOc1ccc(C(=O)Nc2ccc(-n3nc(OCCOCC)nc3-c3ccccc3C)cc2)cc1	29	27

Four structures out of the list, sorted by heavy-atom count, highest first.
Molecule	NPYLR7 ag	NPYLR7 ag max-min
CCCCOc1ccc(C(=O)Nc2ccc(-n3nc(OCCOCC)nc3-c3ccccc3C)cc2)cc1	29	27
O=C(CC(NCCCN1CCOCC1)C(=O)O)Nc1ccc(N=Nc2ccccc2)cc1 (stereo unspecified)	-3	-3
CC1(C)CNC(=O)c2nc(CCn3nccc3C3CC3)[nH]c2C1	-1	-3
Cc1nn(CCO)cc1CN1CC(N2CCCCC2C)C1 (stereo unspecified)	9	5
